DUX4 inh = DUX4-mediated transcription inhibition. 293T-iDUX4 ZSCAN4-Gaussia luciferase reporter, 24 h; stronger effect = lower value. activity change, negative = inhibition, % (no concentration beside the values). actives 0.8% (n = 37,000). AID 1224904;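 active means -10% or lower and over 25 points stronger than a control reporter; inconclusive means -10% or lower with a smaller gap; inactive means above -10%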;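 further: 0% = median of neutral control wells and -100% = median of positive control wells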
DUX4 inh difference = recorded beside DUX4 inh, whose call it bears; Gaussia minus Italica difference, %; measured here: selective DUX4 reporter inhibition;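 worked out from the two reporters; negative = selective loss of the DUX4 reporter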
DUX4 inh control = further read-out of DUX4 inh, marked with its call; activity change, negative = inhibition, %; measured here: Italica tet-on control reporter;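 0 = neutral control and -100 = positive control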
Numbers without * were called inactive; ? = inconclusive; . = not tested or not shown. Only part of the results is shown; the hit share may differ from the screen's.

SMILES | DUX4 inh | DUX4 inh difference | DUX4 inh control
COc1ccc2c3c(n(C)c2c1)[C@@H](CO)N(Cc1ccccc1OC)CC31CCN(C)CC1 | ? | . | .
CO[C@@H]1CN(C)C(=O)c2ccc(NC(=O)Nc3ccccc3)cc2OC[C@H](C)N(C(=O)CC2CC2)C[C@@H]1C | -1.0 | -3.9 | 3.0
C/C=C/c1ccc([C@H]2[C@@H](CO)N(c3nc(CC)cs3)[C@H]2C#N)cc1 | -1.8 | -2.5 | 0.7
N#C[C@H]1[C@H](c2ccc(C3=CCCC3)cc2)[C@@H](CO)N1c1nc(-c2ccccc2)cs1 | -4.6 | -5.1 | 0.5
CC(C)NC(=O)N1[C@H](C#N)[C@@H](c2ccccc2-c2ccc(F)cc2)[C@@H]1CO | -6.9 | -6.3 | -0.5
CCC(=O)N[C@@H]1CC[C@H](CCNC(=O)Nc2ccc(F)cc2)O[C@@H]1CO | 7.1 | 3.7 | 3.4
CN(C)C(=O)c1cccc(-c2cccc(-c3nc(C(=O)N4CCOCC4)cc4c3[C@H](CCO)N([S@@](=O)C(C)(C)C)C4)c2)c1 | 2.2 | 2.6 | -0.4
CC(=O)NC[C@H]1[C@H](c2ccc(C3=CCCC3)cc2)[C@@H](CO)N1Cc1cccnc1 | -0.7 | 1.6 | -2.3
O=C(C[C@H]1CC[C@@H]2[C@H](COC[C@@H](O)CN2Cc2cccc(C(F)(F)F)c2)O1)NCc1ccc(Cl)cc1 | ? | . | .
C[C@H]1CN([C@@H](C)CO)C(=O)c2ccccc2-c2ccccc2CO[C@@H]1CN(C)S(=O)(=O)c1ccc([N+](=O)[O-])cc1 | 7.1 | 4.9 | 2.2
CO[C@H]1CN(C)C(=O)c2ccc(NS(=O)(=O)CC(F)(F)F)cc2OC[C@@H](C)N(C(=O)c2ccc3c(c2)OCO3)C[C@@H]1C | 1.3 | -0.9 | 2.2
COc1ccc(NC(=O)N2CCCCN3[C@@H](CO)[C@H](c4ccc(C5=CCCCC5)cc4)[C@@H]3C2)cc1 | ? | . | .
O=C(C1CC1)N1CC[C@@H]2[C@H](CO)Nc3ccc(C#Cc4ccccc4F)cc3[C@@H]21 | ? | . | .
COC(=O)C[C@@H]1CC[C@H]2[C@H](COc3ccc(NC(=O)Nc4cccc(F)c4)cc3C(=O)N2C)O1 | -1.8 | -3.4 | 1.6
CC(C)NC(=O)N(C)C[C@@H]1OCc2ccccc2-c2ccccc2C(=O)N([C@H](C)CO)C[C@@H]1C | 12.2 | 6.7 | 5.6
O=C(Cc1ccccc1)N1CC[C@@H]2[C@@H](CO)Nc3ccc(C#Cc4cccc(F)c4)cc3[C@@H]21 | -3.0 | 2.8 | -5.9
N#C[C@@H]1N[C@@H](CO)[C@@H]1c1ccccc1 | 3.1 | -2.2 | 5.3
CS(=O)(=O)Nc1ccc2c(c1)[C@@H]1C[C@H](CC(=O)O)O[C@H](CO)[C@@H]1O2 | 7.7 | 4.8 | 2.9
COc1ccc(C#Cc2ccc3c(c2)[C@@H]2[C@@H](CCN2C(=O)c2ccccc2F)[C@H](CO)N3C)cc1 | 3.5 | -2.7 | 6.2
C[C@H](CO)N1C[C@H](C)[C@@H](CN(C)C(=O)Cc2cccnc2)Oc2cc(C#Cc3ccccc3F)ccc2S1(=O)=O | 0.4 | 0.3 | 0.1
N#C[C@@H]1[C@@H](c2ccc(C#Cc3cccnc3)cc2)[C@@H](CO)N1C(=O)NC1CCCCC1 | -0.2 | 1.3 | -1.5
O=C(NC[C@H]1[C@@H](c2ccccc2)[C@@H](CO)N1CC1CCCC1)c1ccccc1 | -5.5 | -4.8 | -0.7
O=C(N[C@@H]1CC[C@H](CCNC(=O)C2CCOCC2)O[C@H]1CO)c1ccccn1 | 3.2 | 5.7 | -2.5
COC(=O)C[C@H]1CC[C@@H]2[C@H](COc3ccc(NS(=O)(=O)c4ccccc4F)cc3C(=O)N2C)O1 | 3.1 | -0.6 | 3.7
CCCNC(=O)Nc1ccc2c(c1)C(=O)N(C)C[C@@H](OC)[C@H](C)CN(C)[C@H](C)CO2 | -4.3 | -4.8 | 0.5
C/C=C/c1ccc([C@H]2[C@H]3CN(Cc4ccc(F)cc4)CC(=O)N3[C@H]2CO)cc1 | 6.5 | -1.8 | 8.3
C[C@@H]1CN([C@H](C)CO)C(=O)CCCn2nncc2CO[C@H]1CN(C)Cc1ccccc1C(F)(F)F | -9.6 | -16.1 | 6.5
OC[C@H]1[C@H](c2ccc(C#Cc3ccccc3F)cc2)[C@H]2CN(CC3CCOCC3)CCCCN21 | ? | . | .
C[C@@H]1CN([C@@H](C)CO)C(=O)CCCn2nncc2CO[C@@H]1CN(C)Cc1cccc(C(F)(F)F)c1 | -4.1 | -2.8 | -1.2
CO[C@@H]1CN(C)C(=O)c2ccc(NC(=O)C3CC3)cc2OC[C@@H](C)N(CCc2ccccc2)C[C@H]1C | -5.2 | -4.2 | -1.0

Three structures from above, arranged by heavy-atom count, rising:
SMILES | DUX4 inh | DUX4 inh difference | DUX4 inh control
O=C(NC[C@H]1[C@@H](c2ccccc2)[C@@H](CO)N1CC1CCCC1)c1ccccc1 | -5.5 | -4.8 | -0.7
O=C(Cc1ccccc1)N1CC[C@@H]2[C@@H](CO)Nc3ccc(C#Cc4cccc(F)c4)cc3[C@@H]21 | -3.0 | 2.8 | -5.9
C[C@@H]1CN([C@H](C)CO)C(=O)CCCn2nncc2CO[C@H]1CN(C)Cc1ccccc1C(F)(F)F | -9.6 | -16.1 | 6.5

The list goes on.
SMILES | DUX4 inh | DUX4 inh difference | DUX4 inh control
O=C([C@@H]1[C@@H](CO)[C@@H]2Cn3c(ccc(-c4ccc(F)cc4)c3=O)[C@@H]2N1Cc1cocn1)N1CCCCC1 | -5.0 | -10.5 | 5.5
COCC(=O)N(C)C[C@H]1Oc2ncc(-c3ccc(F)cc3)cc2C(=O)N([C@@H](C)CO)C[C@@H]1C | -3.2 | -2.6 | -0.6
COC(=O)C[C@@H]1CC[C@H]2[C@@H](COc3ccc(NS(=O)(=O)c4ccccc4Cl)cc3C(=O)N2C)O1 | -2.0 | -2.2 | 0.2
O=C1C[C@@H](c2ccccc2)C(=O)N[C@H](c2ccccc2)C/C=C\C[C@@H](c2ccccc2)N1 | -5.5 | -7.3 | 1.8
C/C=C/c1ccc([C@@H]2[C@H](CO)N(CC3CC3)C23CN(S(C)(=O)=O)C3)cc1 | 6.9 | 2.1 | 4.8
COCC(=O)N1CC2(C1)[C@@H](c1ccccc1)[C@@H](CO)N2C(=O)c1ccncc1 | -1.2 | -0.9 | -0.3
CCCNC(=O)Nc1ccc2c(c1)OC[C@@H](C)N(C(=O)CC)C[C@H](C)[C@H](OC)CN(C)C2=O | 1.8 | -2.8 | 4.6
O=S(=O)(Cc1ccccc1)N1CCCCN2[C@@H](CO)[C@@H](c3ccc(-c4ccc(F)cc4)cc3)[C@@H]2C1 | ? | . | .
O=C(NC[C@H]1N[C@@H](CO)[C@H]1c1ccc(-c2ccc(F)cc2)cc1)c1ccccn1 | -0.3 | 1.9 | -2.2
N#C[C@@H]1[C@H](c2ccccc2)[C@@H](CO)N1C(=O)c1cccnc1 | 2.5 | -1.0 | 3.5
CNC[C@@H]1OCCCC[C@H](C)Oc2ccc(NC(=O)C3CCCCC3)cc2C(=O)N([C@@H](C)CO)C[C@@H]1C | -1.9 | 1.0 | -2.8
CCCN1C[C@H](C)[C@H](OC)CN(C)C(=O)c2ccc(NC(=O)c3ccc(F)cc3)cc2OC[C@@H]1C | 3.5 | 3.3 | 0.2
CCCC#Cc1ccc([C@H]2[C@H]3CN(S(=O)(=O)c4ccccc4F)CCCCN3[C@H]2CO)cc1 | -5.3 | -3.0 | -2.3
CCS(=O)(=O)N1CCCCN2[C@H](CO)[C@@H](c3ccc(-c4ccc(C(=O)N(C)C)cc4)cc3)[C@@H]2C1 | 16.0 | 18.2 | -2.2
C[C@H](CO)N1C[C@H](C)[C@H](CN(C)C(=O)Nc2cccc(F)c2)OCc2cn(nn2)CCCC1=O | -2.6 | -8.1 | 5.5
O=C(C[C@@H]1CC[C@@H]2[C@H](COC[C@H](O)CN2S(=O)(=O)c2cccc(Cl)c2)O1)N1CCOCC1 | -0.7 | 1.8 | -2.5
COc1ccccc1-c1ccc([C@H]2[C@H](CO)N(C(C)=O)C23CN(C(C)=O)C3)cc1 | 11.1 | 8.6 | 2.5
O=C(Nc1ccc(F)cc1)N1C[C@@H]2[C@H](c3ccccc31)[C@@H](CO)N2C(=O)c1ccccc1F | -3.1 | -3.8 | 0.7
CO[C@H]1CN(C)C(=O)c2ccc(NC(=O)C3CC3)cc2OC[C@H](C)N(C(C)=O)C[C@H]1C | 5.7 | 0.7 | 5.0
CC(C)N(C[C@@H]1N[C@@H](CO)[C@H]1c1ccccc1)C(=O)CN1CCOCC1 | -5.7 | -2.6 | -3.1
Cc1cccc(S(=O)(=O)N2CCCCN3[C@H](CO)[C@H](c4ccc(-c5ccncc5)cc4)[C@H]3C2)c1 | -7.5 | 3.4 | -10.9
C[C@@H]1CCCCO[C@H](CN(C)S(=O)(=O)c2cn(C)cn2)[C@@H](C)CN([C@@H](C)CO)C(=O)c2cc(NS(=O)(=O)c3cccs3)ccc2O1 | 1.2 | 1.2 | 0.0
O=C(C[C@@H]1C[C@H]2c3cc(NC(=O)NC4CCCC4)ccc3O[C@H]2[C@H](CO)O1)NCc1ccccc1F | -0.9 | 1.2 | -2.2
CO[C@H]1CN(C)C(=O)c2ccc(NC(=O)c3ccccc3)cc2OC[C@H](C)N(C(=O)C2CC2)C[C@H]1C | -6.1 | -8.2 | 2.1
C[C@H]1CN([C@@H](C)CO)S(=O)(=O)c2ccc(C#Cc3ccncc3)cc2O[C@@H]1CN(C)S(=O)(=O)c1ccc(F)cc1 | -2.1 | -2.8 | 0.7
O=C(N[C@H]1CC[C@H](CCn2cc(-c3ccccc3)nn2)O[C@@H]1CO)c1ccccc1F | ? | . | .
CCCNC(=O)N1C[C@@H]2[C@H](c3ccccc31)[C@H](CO)N2C(=O)c1ccncc1 | 1.5 | -6.2 | 7.7
COc1ccc2c3c([nH]c2c1)[C@@H](CO)N(C(C)=O)CC31CN(S(=O)(=O)c2ccccc2)C1 | 11.1 | 4.2 | 6.9
CN(C)CC(=O)N1[C@@H]2Cn3c(ccc(C4=CCCCC4)c3=O)[C@H]1[C@@H](C(=O)NCC1CC1)[C@@H]2CO | 1.2 | 6.2 | -5.0
O=C(C1CC1)N1[C@H](CO)[C@H]2c3ccccc3N(S(=O)(=O)c3ccc(F)cc3)C[C@H]21 | -1.2 | 2.4 | -3.6

4 compounds from above, limited to DUX4 inh control and DUX4 inh:
molecule,DUX4 inh control,DUX4 inh
O=C(C[C@@H]1C[C@H]2c3cc(NC(=O)NC4CCCC4)ccc3O[C@H]2[C@H](CO)O1)NCc1ccccc1F,-2.2,-0.9
CN(C)CC(=O)N1[C@@H]2Cn3c(ccc(C4=CCCCC4)c3=O)[C@H]1[C@@H](C(=O)NCC1CC1)[C@@H]2CO,-5.0,1.2
C[C@H]1CN([C@@H](C)CO)S(=O)(=O)c2ccc(C#Cc3ccncc3)cc2O[C@@H]1CN(C)S(=O)(=O)c1ccc(F)cc1,0.7,-2.1
CO[C@H]1CN(C)C(=O)c2ccc(NC(=O)C3CC3)cc2OC[C@H](C)N(C(C)=O)C[C@H]1C,5.0,5.7

Next part.
SMILES | DUX4 inh | DUX4 inh difference | DUX4 inh control
C[C@H](CO)N1C[C@H](C)[C@H](CN(C)C(=O)c2cc(Cl)cc(Cl)c2)OCc2ccccc2-c2c(n(C)c3ccccc23)C1=O | ? | . | .
CCCNC(=O)C[C@@H]1CC[C@@H]2[C@H](COC[C@H](O)CN2C(=O)Nc2ccccc2OC)O1 | 5.6 | -0.1 | 5.7
C[C@@H]1CN([C@H](C)CO)C(=O)c2cc(NC(=O)Cc3ccccc3)ccc2O[C@@H](C)CCCCO[C@H]1CN(C)C(=O)NC1CCCCC1 | 7.3 | 0.3 | 6.9
N#Cc1cccc(-c2ccc3c(c2)[C@H]2[C@H](CCN2C(=O)c2ccccc2F)[C@H](CO)N3)c1 | ? | . | .
COc1ccc2c3c([nH]c2c1)[C@H](CO)N(C)CC31CN(C(=O)C2CC2)C1 | 15.6 | 4.5 | 11.1
COc1ccc2c3c(n(C)c2c1)[C@H](CO)N(Cc1nccs1)CC31CCN(CC2CCCC2)CC1 | -0.6 | 0.7 | -1.2
CO[C@@H]1CN(C)C(=O)c2ccc(NS(=O)(=O)CC(F)(F)F)cc2OC[C@H](C)N(C(=O)NC(C)C)C[C@@H]1C | 0.3 | 1.7 | -1.3
COc1ccccc1S(=O)(=O)N1CC[C@@H]2[C@@H](CO)N(C)c3ccc(-c4ccccc4)cc3[C@@H]21 | ? | . | .
CN(C)C(=O)C[C@@H]1CC[C@@H](NC(=O)Nc2cccc(F)c2)[C@@H](CO)O1 | 2.1 | 1.2 | 0.9
C/C=C/c1ccc([C@@H]2[C@H](CO)N(C(C)=O)C23CN(C(=O)c2ccncc2)C3)cc1 | 4.5 | 0.9 | 3.7
COc1ccccc1-c1ccc2c(c1)[C@H]1[C@H](CCN1C(=O)C1CCC1)[C@@H](CO)N2 | ? | . | .
O=C(NC1Cc2ccccc2C1)[C@@H]1[C@@H](CO)[C@@H]2Cn3c(ccc(-c4ccccc4F)c3=O)[C@H]1N2 | 4.3 | 0.6 | 3.7
CN1c2ccc(-c3cccc(F)c3)cc2[C@H]2[C@H](CCN2C(=O)c2ccc3c(c2)OCO3)[C@H]1CO | ? | . | .
CCNC(=O)C[C@H]1CC[C@H]2[C@@H](COc3ccc(NC(=O)c4ccc5c(c4)OCO5)cc3C(=O)N2C)O1 | 0.2 | -7.9 | 8.1
Cc1noc(C)c1NC(=O)Nc1cccc2c1O[C@@H](CN(C)C(=O)NC1CCCCC1)[C@H](C)CN([C@@H](C)CO)C2=O | 2.1 | 4.2 | -2.1
C/C=C/c1ccc([C@@H]2[C@@H](C#N)N(C(=O)NC3CCCC3)[C@@H]2CO)cc1 | -0.7 | -1.7 | 0.9
COc1ccc(NC(=O)Nc2ccc3c(c2)C(=O)N([C@H](C)CO)C[C@@H](C)[C@H](CN(C)Cc2ccncc2)OCCCC[C@@H](C)O3)cc1 | 0.0 | -4.1 | 4.1

Screening results deposited in PubChem by Broad Institute.
